High-throughput results (PubChem)
BJeLR lethal: BJeLR cell viability loss. BJeLR (HRASV12) viability, CellTiter-Glo ATP luminescence, 48 h; reference of the scale not given here. inhibition, % (no concentration beside the values). 300,000 compounds, 0.17% hits;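 active = replicate mean above 50%; inconclusive = above 50% but judged a plate artefact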;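 also: 50 nL library stock added to about 25 µL; numbers are from one replicate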
Sa ugtP lethal: compounds lethal to S. aureus RN4220 ugtP deletion mutant. growth inhibition, % (test concentration not listed). 330,000 compounds, 0.54% hits. OD600 growth, 16 h; some inactives read as strong as hits;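 active = z-score under -3 and OD600 up to 0.15 on both plates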;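 also: plate controls were untreated wells for no effect and antibiotic for full effect; wells of about 80 µL received 100 nL stock; the first replicate is given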
Bead autofluor: flagged as autofluorescent in microsphere protease counterscreen | compound autofluorescence counterscreen, microsphere flow cytometry; stronger effect = higher value | fluorescence intensity (no concentration beside the values) | 360,000 compounds, 3.1% hits;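 active = at least 3 SD above the mean of all compounds, about 16000 in these data; inconclusive = too few beads counted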;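 also: 100 nL of 1 mM stock went into each well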
Mtb hypoxia inh: inhibitors of hypoxia-regulated fluorescent reporter in Mycobacterium tuberculosis; M. tuberculosis hypoxia-regulated fluorescent reporter, fluorescence; fluorescence inhibition, % (test concentration not listed); 300,000 compounds, 0.1% hits;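 active = 35 to 45% if threefold the growth effect, above 45% if 1.5-fold the growth effect; inactive = the rest, general growth blockers included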;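 also: wells of about 50 µL received 100 nL stock; 0% = vehicle wells and 100% = reference inhibitor wells; whole bacteria with a GFP reporter of the hypoxia response; strong numbers were not always called active; many hits fall short of the cut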
Sa RN4220 lethal: kills Staphylococcus aureus RN4220; S. aureus RN4220 growth, OD600, 16 h; inhibition, % (test concentration not listed); 330,000 compounds, 0.33% hits;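 active = z-score of -3 or lower and OD600 up to 0.18 on both plates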;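 also: plate controls were untreated cells for no effect and reference antibiotic for full effect; stock transfer was 100 nL into about 80 µL; one replicate is shown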
PrP UTR inh: inhibition of PrP 5' UTR reporter expression. AID 488862. inhibition, % (concentration not given with the values). cell-based PrP 5' UTR mRNA reporter, plate reader. 340,000 compounds, 0.35% hits;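 active = every replicate at 50% or more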;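 also: 0 = median of the neutral control wells; tested in H4 reporter cells; numbers are from one replicate; inactives centre near -14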
Mtb hypoxia inh growth: also measured in Mtb hypoxia inh; calls as there; growth inhibition, %; measured here: M. tuberculosis growth (absorbance);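 0% = vehicle and 100% = reference antibiotic; read after six days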
* hit, by the source's call; ? = inconclusive; nt = no result given.

Sample of the layout (three entries):
#1 COCCCn1nnnc1SCC(=O)N1CCN(C(=O)c2ccco2)CC1
#2 O=C(NC(=S)N(CC1CCC1)CC1CCCO1)c1cccc([N+](=O)[O-])c1 (stereo unspecified)
#3 COc1cc(CNc2ccc(O)cc2)cc(Br)c1OCc1ccccc1
assay / entry	1	2	3
BJeLR lethal	-7	7	0
Sa ugtP lethal	4	7	23
Bead autofluor	4309	4359	4621
Mtb hypoxia inh	5	8	3
Mtb hypoxia inh growth	6	6	2
Sa RN4220 lethal	0.8	1.1	-11
PrP UTR inh	-12	-28	0

The listing, from the first entry:
#1 COCCCn1nnnc1SCC(=O)N1CCN(C(=O)c2ccco2)CC1
#2 O=C(NC(=S)N(CC1CCC1)CC1CCCO1)c1cccc([N+](=O)[O-])c1 (stereo unspecified)
#3 COc1cc(CNc2ccc(O)cc2)cc(Br)c1OCc1ccccc1
#4 CCn1c(=NC(=O)c2ccc(N3C(=O)CCC3=O)cc2)sc2c(OC)ccc(OC)c21
#5 O=C1CC(N2CCN(c3ccc(F)cc3)CC2)C(=O)N1Cc1ccccc1 (stereo unspecified)
assay / entry	1	2	3	4	5
BJeLR lethal	-7	7	0	-8	1
Sa ugtP lethal	4	7	23	-15	7
Bead autofluor	4309	4359	4621	6245	4224
Mtb hypoxia inh	5	8	3	4	-2
Mtb hypoxia inh growth	6	6	2	6	0
Sa RN4220 lethal	0.8	1.1	-11	21	2.9
PrP UTR inh	-12	-28	0	7	-12

#6 Cc1nc(N2C(=O)C(=O)C(=C(O)c3ccccc3)C2c2ccco2)sc1C (stereo unspecified)
#7 CC(C)(C)NC(=O)C(=O)NN=C1CCCCCCC1
#8 CC(=O)Nc1cccc(NC(=O)C(F)(F)F)c1
#9 Cc1ccc(S(=O)(=O)NN=C2CCC(C(C)(C)C)CC2)cc1[N+](=O)[O-] (stereo unspecified)
#10 CCOc1ccc(-c2nc(CN(Cc3ccccc3)C[C@@H]3CCC(=O)N3)c(C)o2)cc1
assay / entry	6	7	8	9	10
BJeLR lethal	nt	7	0	0	4
Sa ugtP lethal	-1	1	0	-2	5
Bead autofluor	nt	4560	2191	1901	4267
Mtb hypoxia inh	9	8	9	1	1
Mtb hypoxia inh growth	9	6	6	9	0
Sa RN4220 lethal	2.6	6.4	3.8	3.5	-2.6
PrP UTR inh	nt	-52	-28	-11	-13

#11 OC(CN1CCC(c2c[nH]c3ccccc23)CC1)C(F)(F)F (stereo unspecified)
#12 COc1ccc2c(c1)c1nnc(SCC(=O)NC3CC3)nc1n2C
#13 CCOC(=O)NN1C(=O)c2ccccc2NC1c1ccccc1O (stereo unspecified)
#14 CC(=O)Nc1ccc(NC(=O)C(C)Sc2nc3ccccc3c(=O)n2Cc2ccco2)cc1 (stereo unspecified)
#15 COc1ccc(NC(=O)CSc2nnc(-c3ccccc3C)n2N)cc1
assay / entry	11	12	13	14	15
BJeLR lethal	-5	-7	-9	4	-8
Sa ugtP lethal	1	nt	3	-1	-2
Bead autofluor	3632	6347	2468	4983	22454*
Mtb hypoxia inh	-3	nt	4	12	-4
Mtb hypoxia inh growth	-3	nt	7	0	9
Sa RN4220 lethal	2.3	nt	3.4	3.8	-0.6
PrP UTR inh	-19	-1	-9	-13	6

Quoted from the listing:
Under Mtb hypoxia inh, CCOC(=O)NN1C(=O)c2ccccc2NC1c1ccccc1O (stereo unspecified) has the entry 4
Under Bead autofluor, CC(=O)Nc1ccc(NC(=O)C(C)Sc2nc3ccccc3c(=O)n2Cc2ccco2)cc1 (stereo unspecified) has the entry 4983

Next results.
#16 O=c1oc(-c2cccc(Cl)c2)nc2c1cnn2-c1ccccc1
#17 CC(C(=O)Nc1ccc(S(N)(=O)=O)cc1)N1CCc2ccccc21 (stereo unspecified)
#18 COc1ccc(-c2csc(N3CCN(C(=O)c4ccccc4)CC3)n2)cc1
#19 O=C(Nc1cccc(C(F)(F)F)c1)c1cnccn1
#20 C#CCOc1ccc(/C=C2/C(=O)ON=C2C)cc1Cl
assay / entry	16	17	18	19	20
BJeLR lethal	3	5	8	0	-3
Sa ugtP lethal	-5	21	6	-3	4
Bead autofluor	6258	3399	4289	4046	3777
Mtb hypoxia inh	12	5	-6	nt	2
Mtb hypoxia inh growth	2	4	-8	nt	-3
Sa RN4220 lethal	4.5	6.0	17	2.0	1.5
PrP UTR inh	-6	-24	-18	-24	-3

#21 CCOC(=O)NNc1ccccc1
#22 O=C(Nc1ccc(NC(=O)C2CC2)nc1)c1ccncc1
#23 CC1(C(=O)NC2CCCC2)CCC(=O)N1Cc1cccs1 (stereo unspecified)
#24 Cc1cc(C)c(S(=O)(=O)c2ccccc2)c(=O)[nH]1
#25 O=C(CSc1ncn[nH]1)NN=Cc1ccc(F)cc1
assay / entry	21	22	23	24	25
BJeLR lethal	-13	-6	-1	1	nt
Sa ugtP lethal	5	1	2	7	-1
Bead autofluor	5387	3757	22707*	4193	nt
Mtb hypoxia inh	14	8	10	15	1
Mtb hypoxia inh growth	1	8	18	7	7
Sa RN4220 lethal	3.0	1.0	4.1	2.2	3.2
PrP UTR inh	-4	-13	-10	-12	nt

#26 Oc1ccc(C=NNC(=S)Nc2ccc(F)cc2)c(O)c1
#27 COc1ccc(N=C2CCCN2CC(N)=O)cc1
#28 CC(=NNS(=O)(=O)c1ccc(C)c([N+](=O)[O-])c1)c1ccc2c(c1)OCO2
#29 Cc1occc1C(=O)NN=CC1=C(N2CCOCC2)/C(=C\c2ccc(Cl)cc2)CC1
#30 Cc1ccc2cc(S(=O)(=O)NCCC(=O)O)ccc2c1
assay / entry	26	27	28	29	30
BJeLR lethal	nt	3	nt	nt	-4
Sa ugtP lethal	-19	-1	0	3	16
Bead autofluor	3889	2483	nt	nt	8169
Mtb hypoxia inh	9	nt	2	1	1
Mtb hypoxia inh growth	9	nt	4	9	1
Sa RN4220 lethal	1.2	1.0	9.1	-2.4	7.9
PrP UTR inh	-29	-22	nt	nt	-4

#31 CCN1C(=O)[C@@H]2[C@@H](c3ccc(-c4ccc(F)cc4)cc3)N3CCCC[C@@]3(C(=O)OC)[C@@H]2C1=O
#32 CC(=O)c1c(C)cc(C)c(CSc2nc(C)cc(=O)[nH]2)c1C
#33 O=C(NCC1CCCO1)/C(=C\c1cccs1)NC(=O)c1ccccc1 (stereo unspecified)
#34 CCc1ccc(NC(=O)CCNC(=O)N2C[C@H]3C[C@@H](C2)c2cccc(=O)n2C3)cc1
#35 Cc1c(C(=O)N(CCO)Cc2ccccc2)oc2c(F)cccc12
assay / entry	31	32	33	34	35
BJeLR lethal	-9	1	nt	-2	-10
Sa ugtP lethal	nt	9	6	-5	18
Bead autofluor	4352	8843	4093	5655	3623
Mtb hypoxia inh	nt	-1	3	nt	11
Mtb hypoxia inh growth	nt	7	-2	nt	7
Sa RN4220 lethal	nt	5.8	1.2	0.7	4.9
PrP UTR inh	-7	-33	-33	-21	-35

#36 CCOc1ccc(C(=O)Nc2ccccc2-c2ccccc2)cc1Cl
#37 O=C1C=C(c2cccs2)CC(c2cccs2)C1n1cnc([N+](=O)[O-])c1 (stereo unspecified)
#38 COc1cc2nc(NC(=O)c3ccc(F)cc3Cl)sc(=O)c2cc1OC
#39 Cc1c(C(=O)NCCc2ccccc2)oc2ccccc12
#40 COC(=O)CCN1CCc2cc(N=Nc3ccc([N+](=O)[O-])cc3)ccc21
assay / entry	36	37	38	39	40
BJeLR lethal	8	-4	-6	-2	5
Sa ugtP lethal	-13	3	-6	9	0
Bead autofluor	17980*	2378	2917	4842	6357
Mtb hypoxia inh	2	nt	-2	-2	3
Mtb hypoxia inh growth	0	nt	-1	-6	-1
Sa RN4220 lethal	2.4	-4.0	2.5	1.9	1.8
PrP UTR inh	-12	-10	-18	-115	-81

#41 CN(c1ccc(C(=O)NCCSCc2ccco2)cc1)S(C)(=O)=O
#42 CCOC(=O)N1CCN(Cc2nc(CC3CC3)no2)CC1
#43 Cc1ccc(C=NNC(=O)c2ccc(NC(=O)c3ccc(Cl)cc3)cc2)o1
#44 O=S(=O)(Nc1nc2ccccc2s1)c1ccc(Br)s1
#45 CN(C)c1ncc(S(=O)(=O)c2ccccc2)c(-c2ccccc2Cl)n1
assay / entry	41	42	43	44	45
BJeLR lethal	6	-3	nt	0	2
Sa ugtP lethal	-11	8	2	5	12
Bead autofluor	4177	4329	nt	8318	4921
Mtb hypoxia inh	nt	13	6	7	4
Mtb hypoxia inh growth	nt	6	-1	2	13
Sa RN4220 lethal	2.4	5.7	9.1	25	18
PrP UTR inh	-15	-19	nt	-35	-9

#46 NNC(=O)c1ccc2nc(-c3ccc(Br)cc3)cn2c1
#47 COc1ccc(C(=O)CSc2nccn2C)cc1
#48 Cc1nc2nc(-c3cccs3)cn2nc1C
#49 COc1ccc2nc(SC)cc(C)c2c1
#50 COc1ccc(NC(=O)CSCc2cc(=O)n3c(C)csc3n2)cc1
assay / entry	46	47	48	49	50
BJeLR lethal	-4	2	5	5	0
Sa ugtP lethal	nt	2	1	22	4
Bead autofluor	4347	2796	9553	5347	6136
Mtb hypoxia inh	nt	-2	-10	nt	-3
Mtb hypoxia inh growth	nt	3	-11	nt	2
Sa RN4220 lethal	nt	-6.3	4.1	3.7	1.5
PrP UTR inh	-49	-45	-40	-7	0

#51 CC(=O)Nc1nc(COc2ccccc2)cs1
#52 O=c1cc[nH]c2cccc(Cc3ccccc3)c12
#53 COC(=O)c1c(NC(=O)CC2Nc3cc(C)c(C)cc3NC2=O)sc(C)c1C (stereo unspecified)
#54 Cc1cccn2c(CNCC3OCCc4ccccc43)c(C(=O)N3CCCCC3)nc12 (stereo unspecified)
#55 O=C(Cc1c(O)c2ccccc2[nH]c1=O)OC1CCCCC1
assay / entry	51	52	53	54	55
BJeLR lethal	22	-6	1	1	1
Sa ugtP lethal	7	2	1	8	-3
Bead autofluor	11092	24296*	11254	4733	2432
Mtb hypoxia inh	5	8	2	8	5
Mtb hypoxia inh growth	7	2	-2	1	8
Sa RN4220 lethal	3.2	7.7	3.4	5.6	20
PrP UTR inh	-57	-32	-27	-15	-13

#56 COc1cc2c3nnc(-c4ccc(F)cc4)c-3cn(Cc3ccc(F)cc3)c2cc1OC
#57 Cc1cc(C)c(S(=O)(=O)c2ccccc2)c(N(C)C)n1
#58 O=C(c1cccc([N+](=O)[O-])c1)N1CCN(Cc2ccccc2)CC1
#59 O=C(COC(=O)c1c[nH]c2ccccc12)NC1CCCC1
#60 CCOc1ccccc1NS(=O)(=O)c1c(C)noc1C
assay / entry	56	57	58	59	60
BJeLR lethal	9	2	7	nt	3
Sa ugtP lethal	-1	-1	9	1	9
Bead autofluor	6354	2606	4018	5599	3440
Mtb hypoxia inh	nt	4	6	11	14
Mtb hypoxia inh growth	nt	4	8	3	6
Sa RN4220 lethal	-0.5	11	2.3	7.7	7.2
PrP UTR inh	-7	-6	-14	nt	-6

#61 CCCCn1c(=S)[nH]c2ncccc2c1=O
#62 CC(=O)c1ccc(Nc2c([N+](=O)[O-])ccc3nonc23)cc1
#63 Cc1nc2c(-c3ccc(F)cc3)cnn2c(N)c1-c1ccc(F)cc1
#64 COc1ccc(CCNC(=O)C2CCN(C(=O)NC3CCCCC3)CC2)cc1
#65 O=c1ccc2cc(OC3OC(CO)C(O)C(O)C3O)c(O)cc2o1 (stereo unspecified)
#66 O=C(NCc1ccc(OC(F)(F)F)cc1)C12CN(Cc3ccccc3)CC1C(c1cccc([N+](=O)[O-])c1)=NO2 (stereo unspecified)
#67 COc1ccccc1C(=O)NC(=O)COC(=O)c1ccco1
assay / entry	61	62	63	64	65	66	67
BJeLR lethal	-15	-23	1	6	nt	-6	-2
Sa ugtP lethal	-1	2	12	-6	-5	-10	3
Bead autofluor	3691	3871	3107	3998	nt	2994	?
Mtb hypoxia inh	3	3	0	6	-6	2	11
Mtb hypoxia inh growth	12	1	0	6	-2	5	1
Sa RN4220 lethal	1.8	12	-15	-2.3	0.4	1.9	2.3
PrP UTR inh	-7	-16	31	-16	nt	-8	-19
